FGF22 binding: FGF22 (human) thermal shift binding | calls only at 9.99 µM | AID 651658 | recombinant FGF22 thermal shift, SYPRO orange fluorescence; percent of sucrose octasulfate shift, DMSO zero | Q9HCT0 | 340,000 tested, 1.5% active;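 active means melting point raised past a set limit in the mean and every replicate; inconclusive means no clear call; three in four hits are not shown here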
Target sequence (Q9HCT0 whole entry, looked up): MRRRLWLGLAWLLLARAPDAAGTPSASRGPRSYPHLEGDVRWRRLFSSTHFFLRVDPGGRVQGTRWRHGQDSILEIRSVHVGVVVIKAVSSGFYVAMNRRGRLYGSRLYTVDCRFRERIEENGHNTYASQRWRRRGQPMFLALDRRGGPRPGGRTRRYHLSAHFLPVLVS
Ecoli rRNA inh: inhibitors of bacterial rRNA selective over humanized ribosomes | E. coli WT GFP vs humanized-ribosome RFP mutants, fluorescence, 24 h; hits give low values; DMSO median 0, no signal -100 | GFP signal change (wild-type ribosome), % (no concentration beside the values) | 350,000 tested, 1.6% active | AID 720706;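 active means significant combined selectivity score with lowered wild-type GFP, culture density cut under 30%, mutant RFP and density less affected; inactive means any of these conditions unmet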; further: one replicate is shown; some compounds called inactive have numbers as strong as hits
MLL AF4-AF9 inh: inhibitors of human MLL-AF4/AF9 interaction | AlphaScreen, biotin-AF4 peptide binding to FLAG-AF9 | P42568 | inhibition, % at 10 µM | 350,000 tested, 0.47% active;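 active means every replicate reaching a set inhibition limit, whatever the replicate mean, cut at about 25% in these data; inconclusive means mean inhibition reaches that limit but some replicates miss it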;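 further: 0% = plate neutral control median and 100% = total signal loss; the record names both 10 and 1 µM as test concentration; the first replicate is given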
Target sequence (P42568 whole entry, looked up): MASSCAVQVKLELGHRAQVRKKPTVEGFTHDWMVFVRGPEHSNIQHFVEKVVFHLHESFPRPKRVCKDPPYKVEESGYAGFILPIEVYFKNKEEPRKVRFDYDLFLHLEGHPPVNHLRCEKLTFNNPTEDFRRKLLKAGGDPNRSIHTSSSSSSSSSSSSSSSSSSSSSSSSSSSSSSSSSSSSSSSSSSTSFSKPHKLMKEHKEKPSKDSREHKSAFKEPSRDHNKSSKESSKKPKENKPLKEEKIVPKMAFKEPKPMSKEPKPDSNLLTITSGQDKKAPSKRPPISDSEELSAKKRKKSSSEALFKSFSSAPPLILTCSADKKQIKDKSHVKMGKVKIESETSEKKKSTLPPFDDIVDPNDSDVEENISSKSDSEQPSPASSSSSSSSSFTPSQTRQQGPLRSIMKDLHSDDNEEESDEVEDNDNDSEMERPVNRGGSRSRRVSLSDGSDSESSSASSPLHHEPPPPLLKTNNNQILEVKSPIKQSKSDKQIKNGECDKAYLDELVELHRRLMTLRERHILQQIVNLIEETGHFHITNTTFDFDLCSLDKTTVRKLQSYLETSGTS
ALR H2O2 inh: human ALR oxidase inhibition via reduced H2O2; AID 485317; inhibition, % (no concentration beside the values); P55789; 290,000 tested, 3.8% active; purified ALR, DTT oxidation, H2O2 HRP-luminol luminescence;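 active means mean and each replicate at 75% or more; inconclusive means only one of the two met; inactive means neither met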;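 further: stock transfer was 7.5 nL into about 7.5 µL; 0% = neutral wells and 100% = wells with inactivated enzyme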
Target sequence (P55789 whole entry, looked up): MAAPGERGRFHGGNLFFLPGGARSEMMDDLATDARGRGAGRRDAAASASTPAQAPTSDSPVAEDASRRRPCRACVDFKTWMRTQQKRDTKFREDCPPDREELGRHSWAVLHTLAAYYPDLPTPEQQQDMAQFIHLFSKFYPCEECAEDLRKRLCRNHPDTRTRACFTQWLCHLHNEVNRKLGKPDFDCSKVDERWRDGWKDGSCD
Vif TR-FRET: inhibitors of Vif binding to APOBEC3G peptide, primary screen, biochemical, TR-FRET, GST-Vif 1-94, biotin-A3G peptide, dose response retest (AID 1117319). TR-FRET GST-Vif / biotin-A3G peptide binding; higher % means a stronger effect; test concentration not given here; strong numbers were not always called active. 260,000 tested, 0.57% active. inhibition, %; hits with a dose series show IC50 in µM;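 active means above the screen mean plus three standard deviations and confirmed in dose response; inconclusive means results disagree or hit not tested in dose response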;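 further: Vif residues 1-94 fused to GST binding biotinylated APOBEC3G peptide 110-148; 0% = full assay without inhibitor and 100% = GST in place of GST-Vif; retest series ran down from 100 µM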
E coli growth: inhibitors of Escherichia coli growth | OD600, 23 h; hits give low values | OD600 absorbance (concentration not given with the values) | 330,000 tested, 0.21% active;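 active means OD600 absorbance below the run mean of sample wells minus 3.6 SD, in any replicate, cut at about 0.56 in these data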;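 further: stock transfer was 300 nL into about 60 µL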
HNF4A DNA FP: change in binding of human HNF4 alpha to DNA; activity change, % at 10 µM; HNF4a-FITC DNA binding, fluorescence polarization, 1 h; AID 1224865; 360,000 tested, 0.3% active; P41235; in the data active means activity change above about 30%, passing the limit was not always enough;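 further: controls were the assay level and a saturating level of protein; the project sought stronger binding though the title names inhibitors; some compounds called inactive have numbers as strong as hits; positive values seem to mean higher polarization but the record does not say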
Ecoli rRNA inh OD600: also measured in Ecoli rRNA inh; calls as there; OD600 change, %; measured here: OD600 growth;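 optical density of the mix in the first replicate; 0 = DMSO median and -100 = no signal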
Ecoli rRNA inh RFP: second read-out of Ecoli rRNA inh, no call of its own (marks repeat the call); RFP signal change, %; measured here: RFP humanized mutant strains;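 first replicate; 0 = DMSO median and -100 = no signal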
* = called active by the depositor; i = inactive; ? = inconclusive; . = no result given; + = active, no number. Not all compounds are listed; count on the stated rates, not on these rows.

SMILES	FGF22 binding	Ecoli rRNA inh	Ecoli rRNA inh OD600	Ecoli rRNA inh RFP	MLL AF4-AF9 inh	ALR H2O2 inh	Vif TR-FRET	E coli growth	HNF4A DNA FP
CN1C(=O)c2cc(NC(=O)NC3CCCC3)ccc2OC[C@@H]2O[C@H](CC(=O)O)CC[C@@H]21	i	3	-1	-0.2	-1.6	.	.	.	.
CCCc1nc2oc3c(NCCN(C)C)ncnc3c2c2c1CCCC2	.	.	.	.	.	0	-1%	0.62	14
Cc1ccc(NC(=O)CSc2nnc(Cc3ccccc3)o2)cc1	.	.	.	.	.	-4	-1%	0.69	1.3
Cc1ccc(OCCNC(=O)c2ccccc2SCC(=O)N2CCCC2)cc1	i	0	-6	-1.3	-8.4	-1	.	0.69	-1.3
COc1ccc(NC(=O)COc2cccc(C(F)(F)F)c2)cn1	i	-3	-3	0.2	-3.1	.	6%	0.66	-20
Cc1ccc2c(c1)C(c1ccccc1)N(C(=O)C(C)C)CC(=O)N2 (centres undefined)	i	1	-6	-1.3	-0.9	.	2%	0.71	-3.2
C=CCSc1nnc(NC(=O)C2CC(=O)N(Cc3ccc(C)cc3)C2)s1 (centres undefined)	i	2	14	-2.2	-0.9	-1	3%	0.7	-2.3
Cn1c(=O)c(C(=O)CN2CCOCC2)c(N)n(Cc2ccccc2)c1=O	.	.	.	.	.	-1	-3%	0.73	-0.9
COc1ccccc1-c1ccc2c(c1)O[C@@H](CN(C)C(=O)Nc1cccc(F)c1)[C@H](C)CN([C@@H](C)CO)S2(=O)=O	+	2	-7	8.8	1.3	.	.	.	.
CCC(C)C1C(C#N)=C(N)OC2=C1C(=O)CC(C)(C)C2 (centres undefined)	i	-4	-15	-7.1	0.7	3	-3%	0.77	1.1
COc1cccc(N2C(=O)N(c3ccccc3)C3CS(=O)(=O)CC32)c1 (centres undefined)	.	.	.	.	.	-6	9%	0.7	-1.2
COc1ccccc1NC(=O)N[C@@H]1CC[C@@H](CCNC(=O)c2ccc3c(c2)OCO3)O[C@H]1CO	i	-2	3	1.7	-4.6	.	.	.	.
COc1ccc2oc3cc(Cl)ccc3c(=O)c2c1	i	13	22	1.4	-6.0	.	.	.	0.8
O=C(NCc1ccccc1)Nc1cccn(Cc2ccccc2Cl)c1=O	.	-10	-29	0.5	2.4	.	.	0.67	2.6
CSCC[C@H](NC(=O)N1CCn2c1nc1ccccc12)C(=O)NC1CCCCC1	i	-28*	-23*	-0.6*	1.6	98*	5%	0.64	1.7
CO[C@@H]1CN(C)C(=O)c2cc(NC(=O)Nc3ccc4c(c3)OCO4)ccc2OC[C@@H](C)N(C(C)=O)C[C@H]1C	i	-1	2	-1.8	1.6	.	.	.	.
CC(=O)c1ccc(NC(=O)COC(=O)c2ccccc2N=Nc2ccc(N(C)C)cc2)cc1	i	4	13	-3.3	17	4	25%	0.7	-0.6
Cc1ccc(C)c(SCc2noc(C(=O)NCC3CCCO3)c2C(=O)O)c1 (centres undefined)	i	-3	4	-3.1	-3.3	19	-1%	.	0.1
CCn1c(NC(C)=O)c(-c2ccccc2Cl)c(=O)c2ccccc21	i	6	3	0.3	1.0	-1	-9%	0.68	-0.2
O=C(Nc1ccc(F)cc1)N1CCN(C/C=C/c2ccccc2)CC1	.	.	.	.	.	-24	0%	0.66	5.0
CCCC[n+]1c(-c2ccc(Cl)cc2Cl)csc1Nc1ccccc1	.	.	.	.	.	-18	5%	0.74	3.6
COc1ccc(-c2nc(N)nc(C(F)(F)F)c2-c2csc(C)n2)c(O)c1	i	1	-10	3.0	-8.7	.	-2%	0.72	-3.5
COc1ccc2c3c([nH]c2c1)[C@@H](CO)N(C(=O)Nc1ccc(F)cc1)CC31CN(C(=O)c2ccccn2)C1	i	1	-14	0.9	1.4	.	.	.	.
Cc1ccc(NC(=O)CSc2nnc(CNC(=O)c3ccco3)o2)cc1	i	15	18	2.0	-2.5	-1	-1%	0.68	-1.6
COc1ccc2c3c(n(C)c2c1)[C@H](CO)N(Cc1cccc(Cl)c1)CC31CCN(C(C)=O)CC1	i	-5	-21	9.4	1.5	.	.	.	.
Later entries
SMILES	FGF22 binding	Ecoli rRNA inh	Ecoli rRNA inh OD600	Ecoli rRNA inh RFP	MLL AF4-AF9 inh	ALR H2O2 inh	Vif TR-FRET	E coli growth	HNF4A DNA FP
COc1ccc(N2CC(C(=O)Nc3nnc(SCC(=O)Nc4ccc(NC(C)=O)cc4)s3)CC2=O)cc1 (centres undefined)	i	-2	-1	-0.8	-3.4	.	-2%	.	2.5
CCOCCC(=O)Nc1ccc2c(c1)c(=O)n(C)n2-c1ccccc1F	i	4	5	-0.7	-3.0	.	.	.	-0.5
Cc1nnc(SCC(=O)Nc2ccc3c(c2)OCO3)o1	.	.	.	.	.	-16	5%	0.72	4.7
CCOC(=O)c1c(C)nc2c3ccccc3ccn12	.	.	.	.	.	7	-1%	0.71	1.1
CCOC(=O)N1CCN(C(=O)c2ccc(SC)cc2OC)CC1	i	0	1	2.0	-2.9	-11	7%	0.7	0.3
COc1cccc(-c2nc(CS(=O)CC(=O)NCCc3ccccc3)c(C)o2)c1 (centres undefined)	i	-2	-3	0.7	-0.8	99*	.	0.71	-5.7
CC(C)COC(=O)/C(C#N)=C/c1cn(Cc2ccccc2)c2ccccc12	.	.	.	.	.	.	2%	0.74	1.4
COc1ccc(-c2cn(CC[C@@H]3CC[C@@H](NS(=O)(=O)c4ccccc4C)[C@H](CO)O3)nn2)cc1	i	0	0	1.2	-1.2	.	.	.	.
CC(C)CC#Cc1ccc2c(c1)O[C@H](CN(C)C(=O)Cc1ccccc1)[C@@H](C)CN([C@@H](C)CO)S2(=O)=O	i	-7	-17	3.5	-0.5	.	.	.	.
CCN(CC)P(=O)(C(NC(=O)OC)C(F)(F)C(F)(F)C(F)(F)C(F)F)N(CC)CC (centres undefined)	.	.	.	.	.	-2	0%	0.65	-2.1
CO[C@@H]1CN(C)C(=O)c2cc(NC(=O)C3CC3)ccc2OC[C@@H](C)N(Cc2nccs2)C[C@H]1C	i	-1	-1	-0.2	-2.3	.	.	.	.
N#C[C@@H]1[C@H](c2ccccc2)[C@H](CO)N1C(=O)c1ccc2c(c1)OCO2	i	1	2	0.5	-2.2	.	.	.	.
Cc1cccc(NC(=O)/C=C/c2ccc([N+](=O)[O-])s2)c1	i	-11	-3	9.6	6.5	.	.	0.69	24
CCN(C(=O)COC(=O)/C(C#N)=C/c1ccc(OC)cc1)C1CCS(=O)(=O)C1 (centres undefined)	i	5	3	-1.5	-3.3	17	-2%	0.66	1.4
CCN1CCN(CC(=O)c2ccc(OC)cc2)CC1	i	10	5	-2.1	-0.7	-6	?	0.71	6.1
CCC(C)Nc1nc(OC)nc(N(C)C#N)n1 (centres undefined)	.	.	.	.	.	.	0%	0.72	1.2
C/C(N)=C(/C#N)C(=O)COC(=O)c1cccc(O)c1	i	-2	0	-1.4	3.6	12	.	0.7	4.6
Cc1ccc([C@@H]2C[C@H]3[C@@H](CN2S(=O)(=O)c2ccc(C)cc2)C(=O)C[C@@H](c2ccc(Cl)cc2)N3S(=O)(=O)c2ccc(C)cc2)cc1	i	21	9	1.4	-1.8	.	.	.	-3.0
COc1ccc2[nH]cc(CCn3ccc(O)c(C/C=C/c4ccccc4)c3=O)c2c1	i	-17	-13	1.0	1.6	8	14%	0.69	9.1
CCOc1ccc(OCc2ccc(C(=O)NN)o2)cc1	i	-13	-6	-0.8	-0.7	-6	?	0.66	-1.4
CCOc1cccc(-c2nc3cc(C)ccc3o2)c1	.	.	.	.	.	3	2%	0.72	-0.8
COc1ccc(OC)c(C(=O)CSc2nnc(-c3cccs3)n2C)c1	.	.	.	.	.	-7	6%	0.79	-2.1
CCC(CC)C(=O)NN(C(=O)c1ccncc1)C1CC(=O)N(c2ccccc2)C1=O (centres undefined)	i	4	3	-0.3	-0.8	-11	0%	0.66	-3.4
COc1cccc(NC(=O)N[C@@H](Cc2ccccc2)C(=O)O)c1	.	.	.	.	.	-8	-3%	0.75	-2.0
CCCNC(=O)N1C[C@@H](O)COC[C@H]2O[C@H](CC(=O)N3CCN(C)CC3)CC[C@@H]21	i	10	12	-1.2	-2.3	.	.	.	.
Other compounds
SMILES	FGF22 binding	Ecoli rRNA inh	Ecoli rRNA inh OD600	Ecoli rRNA inh RFP	MLL AF4-AF9 inh	ALR H2O2 inh	Vif TR-FRET	E coli growth	HNF4A DNA FP
CN(C)S(=O)(=O)c1cccc(C(=O)c2nccn2C)c1	i	6	-1	-0.4	-1.8	13	5%	0.68	2.3
S=c1[nH]nc(COc2ccccc2)n1/N=C/C=C/c1ccccc1	i	0	3	3.5	-1.6	21	.	.	-1.4
CCOC(=O)c1nnn(-c2nonc2N)c1COc1c(C=O)cccc1OC	.	.	.	.	.	19	8%	0.78	1.2
C[C@@H]1CN([C@H](C)CO)C(=O)c2cc(NS(=O)(=O)c3cccs3)ccc2O[C@@H]1CN(C)Cc1ccc2c(c1)OCO2	i	1	-5	1.7	0.0	.	.	.	.
O=S(=O)(Nc1ccc(-c2csc(-c3ccccc3)n2)cc1)c1ccc(F)cc1	.	.	.	.	.	1	5%	0.73	-4.3
CCN(CC)C(=O)c1sc(NC(=O)Cc2cccs2)c(C#N)c1C	.	1	-5	2.2	.	9	-4%	0.69	-1.0
CC(=O)N(C[C@@H]1N[C@@H](CO)[C@H]1c1ccc(-c2ccc(F)cc2)cc1)C(C)C	i	-2	-4	2.5	4.5	.	.	.	.
C[C@H]1CN([C@@H](C)CO)C(=O)c2ccccc2-c2ccccc2CO[C@@H]1CN(C)Cc1ccc(C(F)(F)F)cc1	i	-5	-21	6.3	4.3	.	.	.	.
CC(C)(C)OC(=O)N[C@@H](CCCCNC(=O)OCc1ccccc1)c1nnc([C@H](CCCCNC(=O)OCc2ccccc2)NC(=O)OC(C)(C)C)o1	.	.	.	.	.	-11	0%	.	2.9
CCc1nn(C(C)C(=O)N2CCN(c3ccccc3)CC2)c(=O)c2cc3occc3n12 (centres undefined)	i	-3	-9	3.5	-0.7	19	-5%	0.72	-1.6
Cc1cc(C)c2c(n1)SCC(=O)N2CC(=O)Nc1cc(F)ccc1F	i	1	-4	-6.4	-0.4	-10	.	0.67	1.2
C[C@H](O)C#Cc1cnc2c(c1)C(=O)N([C@H](C)CO)C[C@@H](C)[C@H](CN(C)C(=O)c1ccc(F)cc1)O2	i	3	7	-0.6	-3.4	.	.	.	.
COc1ccc(NC(=O)N(C)C[C@@H]2Oc3c(NS(=O)(=O)c4cccs4)cccc3C(=O)N([C@H](C)CO)C[C@@H]2C)cc1	i	-5	-6	3.9	0.3	.	.	.	.

Screening data deposited in PubChem BioAssay by several laboratories.
